gsp antag: qHTS for Antagonists of gsp, the Etiologic Mutation Responsible for Fibrous Dysplasia/McCune-Albright Syndrome: qHTS. gsp-mutant cells, cAMP HTRF, 30 min; control for the full effect not named in the record. Potency, µM (top dose mostly 76.9 µM), inactives show top-dose activity change, negative = inhibition, usual class: inhibitors. 0.4% of 340,000 active; active = falling curve of any shape with a large fitted effect; inconclusive = falling curve, mostly with a smaller effect; inactive = flat or rising curve; cell line not stated here;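 further: intracellular cAMP measured with PDE inhibitor Ro 20-1724 present during compound exposure; potency means the concentration at half of the fitted maximal effect; on the % scale 0 is the no-effect control and ±100 the full control effect; nearly all actives have a fitted effect of over 65% in size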
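Cells in G418 medium, seeded 16-24 h, 37C; buffer exchange to DPBS + 1 mM CaCl2, 0.5 mM MgCl2, 0.05% BSA; cpds in DMSO + […] (300 uM stock), 30 min 37C; HTRF cAMP detection.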
gsp ag: qHTS for Agonist of gsp, the Etiologic Mutation Responsible for Fibrous Dysplasia/McCune-Albright Syndrome: qHTS. gsp mutant cells, cAMP HTRF, 30 min; control for the full effect not named in the record. Potency, µM (highest dose often 76.9 µM), for inactives: at the top dose activation (cAMP increase), hits mostly activators. 0.13% of 340,000 active; active = well fitted activation curve with a large enough effect; inconclusive = small, poorly fitted or top-dose-only effect, or another doubt; inactive = no such curve, though single readings can be large or run the other way; cell line not stated here;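 further: phosphodiesterase inhibitor Ro 20-1724 added with compounds to block cAMP breakdown; potency means the concentration at half of the fitted maximal effect; nearly all actives have a fitted effect of over 60% in size; about a fifth of the inactives were tested at one dose only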
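Cells in DMEM/10% FBS with G418 were pretreated with compounds in DMSO plus […] (300 uM stock) for 30 min at 37C. cAMP was measured by HTRF (cAMP-d2 plus anti-cAMP antibody-K) after 30 min at room temperature.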
Menin-MLL FL inh: qHTS Assay for Inhibitors Targeting the Menin-MLL Interaction in MLL Related Leukemias: Competition With Fluorescein Labeled MLL-derived Peptide. Fluorescence polarization, fluorescein-MLL peptide displacement from menin. FP activity change, % at 61.4 µM. 290,000 tested, under 10 active. AID 1766, 2009; inconclusive = falling polarisation curve, or a change in total fluorescence; inactive = total fluorescence flat and polarisation flat or rising; no compound was filed as active; the % refers to the polarisation; negative = inhibition;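 further: % of control where 0% means no effect; inhibitors lower the polarisation; unlabelled MLL peptide was the positive control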
ClpP mod: qHTS Assay for Activators of ClpP. purified B. subtilis ClpP, FRET peptide cleavage, 20 min. Potency, µM (highest dose often 57.5 µM), for inactives: top-dose activity change, negative = active. 1.9% of 340,000 active. AID 651965, 2013. ATP-dependent Clp protease proteolytic subunit (Bacillus subtilis (strain 168)), P80244; active = well fitted falling curve with a large enough effect; inconclusive = small, poorly fitted or top-dose-only effect; inactive = no such curve, though single readings can be large or run the other way; further: potency means the concentration at half of the fitted maximal effect; the source files actives as falling curves though it sought activators and does not explain the sign; nearly all actives have a fitted effect of over 65% in size; many hits overshoot -100%
Target sequence (P80244 whole entry, looked up): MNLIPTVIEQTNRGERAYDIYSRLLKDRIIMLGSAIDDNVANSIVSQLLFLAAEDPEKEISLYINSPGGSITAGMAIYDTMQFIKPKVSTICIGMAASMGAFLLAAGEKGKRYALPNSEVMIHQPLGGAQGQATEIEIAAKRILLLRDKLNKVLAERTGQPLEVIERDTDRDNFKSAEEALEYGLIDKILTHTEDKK
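FRET quenching reversal measured ClpP activation: 10 microg/mL B. subtilis ClpP at pH 8 with the FRET-FV decapeptide, read at 430 nm after 320 nm excitation. The 20-min minus 0-min signal was scaled between DMSO/no-enzyme wells and ADEP (5.8 microM final).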
PINK1 modulator: A Quantitative High throughput Screen to Identify Chemical Modulators of PINK1 Expression; 0.2% of 410,000 active; PINK1 immunofluorescence, high-content cytometry, 24 h; AID 624263, 2012; Potency, µM (series often up to 76.6 µM), for the others: top-dose activation (PINK1 increase), hits mostly activators; active = well fitted activation curve with a large enough effect; inconclusive = small, poorly fitted or top-dose-only effect; inactive = flat fitted curve, though single readings scatter; cell line not stated here;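 further: potency means the concentration at half of the fitted maximal effect; % of control where 0% means no effect; nearly all actives have a fitted effect of over 65% in size; a mitochondrial uncoupler was the plate control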
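PINK1 protein level read as immunofluorescence by microplate cytometer in a fixed, stained stable cell line after 24 h exposure to five compound concentrations, with CCCP as control.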
Sfp PPTase inh: qHTS Assay for Inhibitors of Bacillus subtilis Sfp phosphopantetheinyl transferase (PPTase) | Biochemical Sfp PPTase activity, qHTS | 3.5% of 310,000 active | Potency, µM, without a hit: max response, negative = inhibition, actives largely listed as inhibitors | AID 1490, 2009; active means well fitted inhibition curve with a large enough effect; inconclusive means small, poorly fitted or top-dose-only effect, or another doubt; inactive means no such curve, though single readings can be large or run the other way;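 further: the enzyme is Sfp with the accession as filed and its product quenches rhodamine fluorescence; potency means the concentration at half of the fitted maximal effect; 0% = enzyme reaction without inhibitor and -100% = no enzyme wells; top concentration of the series not given in the record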
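Buffer: 50 mM Hepes-Na pH 7.6, 10 mM MgCl2, 0.01% Nonidet P-40, 0.01% BSA. Enzyme 15 nM, pre-exposed to compound 15 min; substrates then added and fluorescence change tracked over 30 min.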
D2 agonist: Beta-Arrestin HTS for Positive Allosteric Modulators of the Human D2 Dopamine Receptor: Agonists; D(2) dopamine receptor (Homo sapiens), P14416; DiscoveRx PathHunter D2 beta-arrestin, luminescence, 90 min; 100% = 57 uM dopamine signal; activation, % (test concentration not listed); 0.084% of 360,000 active; in the data active = activation above about 40%; inconclusive = about 15% to 40%; inactive = below about 15%; further: compound concentration not given in the record; the text of the record calls up to 30% inactive
Target sequence (P14416 whole entry, looked up): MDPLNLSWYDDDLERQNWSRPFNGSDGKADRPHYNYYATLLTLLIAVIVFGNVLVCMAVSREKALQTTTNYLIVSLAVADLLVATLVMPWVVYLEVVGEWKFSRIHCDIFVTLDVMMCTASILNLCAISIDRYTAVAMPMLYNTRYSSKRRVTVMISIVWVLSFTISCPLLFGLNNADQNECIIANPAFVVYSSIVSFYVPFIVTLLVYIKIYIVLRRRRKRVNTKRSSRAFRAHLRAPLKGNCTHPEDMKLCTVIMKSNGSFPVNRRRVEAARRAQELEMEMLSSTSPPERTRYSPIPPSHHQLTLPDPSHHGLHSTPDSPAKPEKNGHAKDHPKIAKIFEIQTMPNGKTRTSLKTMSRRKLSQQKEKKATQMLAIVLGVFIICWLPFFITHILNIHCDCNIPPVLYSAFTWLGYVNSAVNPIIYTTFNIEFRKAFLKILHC
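DiscoveRx PathHunter D2 beta-arrestin cells (2,100/well) attached overnight, then compound-stimulated 90 min at 37 C in HBSS/10 mM HEPES/0.1% Tween-20 buffer; beta-galactosidase complementation read by luminescence after 1 h at ambient temperature. Dopamine 57 uM final (EC100) as control.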
Starred values were filed as active, the others as inactive; u = inconclusive; x = not tested or not shown; [ ] = remark or other dose.

SMILES	gsp antag	gsp ag	Menin-MLL FL inh	ClpP mod	PINK1 modulator	Sfp PPTase inh	D2 agonist
COC(=O)c1cc(C(=O)OC)cc(N2C(=O)CC(NNC(=O)c3ccccc3Cl)C2=O)c1 (centres undefined)	5%	-1%	1.6	0.3%	-2.9%	-1%	-8.5
CCc1ccc2[nH]c(=O)c(C(c3nnnn3CCOC)N3CCN(c4ccccc4F)CC3)cc2c1 (centres undefined)	9%[15.4 µM]	4%	5.8	-17%	1.5%	8.9µM*	0.6
O=C(CCC(=O)Nc1nnc(C2CCCCC2)s1)NCc1cccs1	3%	2%	2.3	1.9%	-0.3%	13%	-2.6
O=C(CN(Cc1ccc2c(c1)OCO2)C(=O)c1cnsn1)NC1CCCC1	6%	-32%[inhibitor]	4.1	-2.8%	4.7%	15%	-0.1
CC(C)c1cc(C(=O)N/N=C/c2ccco2)n[nH]1	5%	u	0.4	0.1%	-1.7%	-7%	-1.3
COc1ccccc1CNc1nc(NC(C)C)nc2ccsc12	x	x	x	-26%	u	x	-1.3
CC(=O)c1ccc(NC(=O)c2ccc(COc3ccccc3[N+](=O)[O-])o2)cc1	-12%	0%	4.9	1.0%	9.6%	-24%	-3.3
COc1ccc(/C(C)=N/NC(=O)c2nnn(-c3nonc3N)c2CN(C)c2ccccc2)cc1	14%	4%	0.8	-0.2%	3.8%	18%	2.8
O=C(Nc1nnc(-c2cccs2)o1)c1ccco1	-6%	-5%	1.0	2.9%	0.3%	-28%	0.1
Cc1cn([C@H]2C[C@H](O)[C@@H](CNC=O)O2)c(=O)[nH]c1=O	x	-34%[inhibitor]	x	1.9%	-1.1%	x	-0.6
COc1ccccc1OCC(=O)NNC(=S)NC(=O)c1ccco1	9%	-4%	8.0	-1.5%	2.7%	-17%	-7.7
Cc1ccc(CN2CC(C(=O)Nc3ccccc3N3CCCC3)CC2=O)cc1 (centres undefined)	-5%	-1%[15.4 µM]	x	x	-1.5%	x	-5.1
COc1cccc(OC)c1C(=O)Nc1sc2c(c1C(N)=O)CCN(Cc1ccccc1)C2	-8%	-37%[inhibitor]	8.1	-22%	0.6%	-10%	1.6
CCOC(=O)c1c(-c2ccccc2Cl)csc1NC(=O)CSc1nc(C)cc(=O)[nH]1	u	-33%[inhibitor]	5.8	0.2%	4.1%	-8%	2.8
CCn1c(O)c(C(C#N)=C2N=c3ccccc3=N2)c2ccccc21	0%	10%	4.5	0.7%	18%[38.3 µM]	6%	3.9

Next section; the last 4 above are carried over.
SMILES	gsp antag	gsp ag	Menin-MLL FL inh	ClpP mod	PINK1 modulator	Sfp PPTase inh	D2 agonist
Cc1ccc(CN2CC(C(=O)Nc3ccccc3N3CCCC3)CC2=O)cc1 (centres undefined)	-5%	-1%[15.4 µM]	x	x	-1.5%	x	-5.1
COc1cccc(OC)c1C(=O)Nc1sc2c(c1C(N)=O)CCN(Cc1ccccc1)C2	-8%	-37%[inhibitor]	8.1	-22%	0.6%	-10%	1.6
CCOC(=O)c1c(-c2ccccc2Cl)csc1NC(=O)CSc1nc(C)cc(=O)[nH]1	u	-33%[inhibitor]	5.8	0.2%	4.1%	-8%	2.8
CCn1c(O)c(C(C#N)=C2N=c3ccccc3=N2)c2ccccc21	0%	10%	4.5	0.7%	18%[38.3 µM]	6%	3.9
COc1ccc(-n2nnnc2SCC(=O)Nc2ccccc2N2CCOCC2)cc1	6%	4%[15.4 µM]	-0.1	x	7.8%	-5%	-0.8
O=C1CCCC(O)=C1C=NCCc1ccccc1	10%	4%	1.5	-2.4%	-0.1%	3%	0.9
Cc1ccc(C(=O)NC(C)c2ccccc2)cc1S(=O)(=O)N1CCOCC1 (centres undefined)	2%	-10%[15.4 µM]	-2.2	-0.5%	-0.5%	11%	-2.8
COc1ccc(S(=O)(=O)N2CCN(C(=O)[C@@H]3CCCN3C(=O)c3cccs3)CC2)cc1	2%	5%[15.4 µM]	x	-1.6%	-1.5%	x	0.5
CC1CN(C2=Nc3cccc4cccc2c34)CC(C)O1 (centres undefined)	-42%	-35%[inhibitor]	u	0.0%	-0.5%	2%	-2.4
O[Si](CCCN1CCCCC1)(c1ccc(F)cc1)C1CCCCC1 (centres undefined)	6%	x	4.0	0.5%	0.1%	x	-3.3
CCN1/C(=C2/SC(=S)N(C)C2=O)C=Cc2cc(C)ccc21	5%	1%[15.4 µM]	x	x	-1.2%	x	-3.7
Cc1ccc(S(=O)(=O)CCC(=O)Nc2ccc(F)cc2)cc1	2%	u	2.8	x	2.2%	22%	-0.3
Cc1ccn2cc(-c3cccc(S(=O)(=O)N4CCCCC4)c3)nc2c1	-13%	7%	x	-15%	2.2%	-8%	0.1
CCOc1ccc(NC(=O)c2nnn(CC(=O)Nc3ccccc3OC)c2N)cc1	8%	-18%	-4.3	90%	9.1%	-3%	-1.3
CC1CN(Cc2cnc(Cl)s2)CC(C)O1 (centres undefined)	4%	15%	-8.1	-2.5%	-0.4%	18%	-3.0
COc1cnc(-c2ccccn2)nc1Oc1ccc(Cl)cc1	1%	14%	3.6	-1.0%	-6.3%[38.3 µM]	2%	-3.7
O=C(Nc1ccc[n+](CC(=O)c2cccc3ccccc23)c1)c1ccccc1	12%	20%	5.8	-6.7%	-1.9%	56µM*	0.3
CCCn1nnc(NC(=O)Cc2ccccc2)n1	14%	7%	1.6	-0.7%	-0.3%	19%	-1.5
COc1cc(=O)[nH]c(=O)n1CC(=O)c1ccccc1	8%	-10%	-0.4	-0.1%	1.1%	17%	-2.7
CCCOc1ccc(C2C3=C(CCCC3=O)N(CC(=O)O)C3=C2C(=O)CCC3)cc1OCC	3%	-20%	-11	x	-1.3%	12%	-0.6
C=CCOc1ccccc1CN(C(=O)CCl)c1ccc2c(c1)OCO2	-16%	3%[15.4 µM]	4.7	x	-2.0%	8%	-3.8
Cc1ccc(NC2CCCN(C(=O)c3cnsn3)C2)cc1C (centres undefined)	3%	u	0.1	2.2%	-0.2%	0%	1.6
C=C(C)Cn1c(CCNC(=O)C(C)C)nc2ccccc21	6%	2%	7.7	-0.2%	-1.8%	22%	-5.2
COc1ccc(N(CC(=O)NC2CCCC2)C(=O)Cn2nnc(-c3ccc(OC)c(OC)c3)n2)cc1	u	-8%[15.4 µM]	0.4	x	1.3%	16%	-1.9
COc1cccc(C(=O)Nc2cc(C(=O)NCCc3ccccc3)ccc2Cl)c1	-1%	-11%	0.5	14%	x	3%	0.0
Cc1ccnc(N/N=C/c2ccco2)n1	-6%	-1%	-0.4	-0.2%	0.8%[38.3 µM]	u	-0.9
C[C@@H]1CN([C@H](C)CO)C(=O)c2cc(NC(=O)Nc3ccc(C(F)(F)F)cc3)ccc2O[C@H]1CN(C)S(=O)(=O)c1ccc(Cl)cc1	-2%	x	x	-3.5%	0.0%	x	0.5
CCCc1nnc(-c2cc(OC)c(OC)c(OC)c2)o1	7%	-6%	3.6	-26%	0.2%	18%	-2.6
COc1ccc(NC(=O)COC(=O)c2c(-c3ccccc3)noc2C)cc1	5%	-61%[inhibitor]	2.3	-6.6%	1.0%[38.3 µM]	11%	3.0
Cc1ccc(N2C(=O)C3C4C=CC(CNC(=S)Nc5cccc(Cl)c5)(O4)C3C2=O)cc1 (centres undefined)	0%	-54%[inhibitor]	7.2	0.2%	6.7%	35µM*	-0.6
C=CCOc1ccccc1NC(=O)CN1C(=O)CNC1=O	12%	10%	3.3	x	-2.2%	12%	-1.9
COc1cccc(C(=O)Nc2nc(-c3ccc4c(c3)OCO4)cs2)c1	-12%	4%	4.2	u	8.8%	-3%	1.7
COCCn1c(SCc2nc(N)nc(Nc3ccccc3C)n2)nc2ccccc2c1=O	10%	-41%[inhibitor]	-1.0	-3.7%	3.7%[38.3 µM]	3%	1.4
CCOP(=O)(c1ccc(N(C)C)cc1)C(O)c1ccccc1 (centres undefined)	2%	-7%	-0.7	-0.2%	-2.1%	1%	-1.1

Some values from the list.
Cc1ccc(NC2CCCN(C(=O)c3cnsn3)C2)cc1C (centres undefined) @ D2 agonist: 1.6
C[C@@H]1CN([C@H](C)CO)C(=O)c2cc(NC(=O)Nc3ccc(C(F)(F)F)cc3)ccc2O[C@H]1CN(C)S(=O)(=O)c1ccc(Cl)cc1 @ gsp antag: -2%
Cc1ccnc(N/N=C/c2ccco2)n1 @ PINK1 modulator: 0.8%[38.3 µM]
C=C(C)Cn1c(CCNC(=O)C(C)C)nc2ccccc21 @ gsp ag: 2%
CCCOc1ccc(C2C3=C(CCCC3=O)N(CC(=O)O)C3=C2C(=O)CCC3)cc1OCC @ D2 agonist: -0.6

Remaining list, next part.
SMILES	gsp antag	gsp ag	Menin-MLL FL inh	ClpP mod	PINK1 modulator	Sfp PPTase inh	D2 agonist
Cc1cnc(C(=O)Nc2ccc(-n3cnnn3)cc2)cn1	4%	u	-1.0	-0.5%	-1.3%	20%	-0.7
Cc1ccc(C)c(NS(=O)(=O)c2cc(C(=O)Nc3ccccc3-c3ccccc3)ccc2Cl)c1	-1%	13%	4.4	u	-0.5%[38.3 µM]	25%	-0.6
C=CCn1nnnc1SCC(=O)Nc1ccc(C(=O)OC)cc1	11%	-50%[inhibitor]	x	-0.4%	3.6%	11%	-2.4
Cc1nc(C(F)(F)F)ccc1C(=O)N1CCCC(C(=O)O)CC1 (centres undefined)	x	x	x	-0.4%	2.3%	x	2.4
CCOc1ccccc1CNC(CC)CO (centres undefined)	4%	-13%	-2.2	-0.9%	-1.8%	12%	0.2
O=C(NCCC1=CCCCC1)C1CCN(S(=O)(=O)c2ccc(-n3cnnn3)cc2)CC1	-5%	-38%[inhibitor]	0.0	-1.2%	5.5%	13%	-0.5
CCN(CC)c1ccc(/C=N/NC(=O)Nc2ccccc2)cc1	-6%	21%	1.7	4.0%	26%	-8%	-2.6

Screens (PubChem BioAssay)
